YopH PTP inh: blocks Yersinia enterocolitica YopH tyrosine phosphatase; fluorescence Ex485/Em525; inhibition, %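 (about 10 µM by stock and volumes)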; actives 0.16% (n = 140,000); AID 898;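 active means inhibition of 50% or more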;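 further: controls were vehicle for no effect and minimum signal wells for full effect; inactives centre near -20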
RecA intein inh: Mtb RecA intein splicing inhibition | P9WHJ3 | cell-free RecA intein splicing, fluorescence | inhibition, %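 (about 9 µM by stock and volumes)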 | actives 0.75% (n = 290,000); in the data active means inhibition above about 30%; inconclusive means no clear call, values can overlap the other calls;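 further: 0% = vehicle wells and 100% = reference inhibitor control wells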
Target sequence (P9WHJ3 whole entry, looked up): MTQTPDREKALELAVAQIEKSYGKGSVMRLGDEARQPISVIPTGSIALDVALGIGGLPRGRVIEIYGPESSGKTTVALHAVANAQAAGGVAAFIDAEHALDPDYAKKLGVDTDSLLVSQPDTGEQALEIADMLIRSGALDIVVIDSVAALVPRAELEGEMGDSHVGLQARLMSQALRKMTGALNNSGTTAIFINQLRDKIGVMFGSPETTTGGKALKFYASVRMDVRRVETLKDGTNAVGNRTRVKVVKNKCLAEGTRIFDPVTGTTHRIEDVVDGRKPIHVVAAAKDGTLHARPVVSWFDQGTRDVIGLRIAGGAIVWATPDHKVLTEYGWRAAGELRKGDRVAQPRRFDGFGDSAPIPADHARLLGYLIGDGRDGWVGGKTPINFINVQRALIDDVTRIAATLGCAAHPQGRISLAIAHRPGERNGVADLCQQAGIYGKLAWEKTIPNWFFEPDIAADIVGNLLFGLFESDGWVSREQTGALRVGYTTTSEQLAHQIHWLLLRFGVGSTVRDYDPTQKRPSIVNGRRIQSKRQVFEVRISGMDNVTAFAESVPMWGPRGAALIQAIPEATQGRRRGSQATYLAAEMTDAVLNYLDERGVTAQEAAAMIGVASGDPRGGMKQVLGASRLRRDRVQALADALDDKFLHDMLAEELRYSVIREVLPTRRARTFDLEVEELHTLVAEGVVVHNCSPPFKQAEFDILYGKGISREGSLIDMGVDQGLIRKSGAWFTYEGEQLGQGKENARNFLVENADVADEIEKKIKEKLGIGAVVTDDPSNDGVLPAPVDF
Mtb bLac sens: beta-lactam sensitization of Mtb H37Rv. M. tuberculosis H37Rv growth with meropenem, percent inhibition; hits of this screen are not shown here. inhibition, % at 25 µM. actives 0.27% (n = 330,000). AID 434955;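 active means about 74% or more and at least 40 points above the plate without the antibiotic, then above 30% in a dose series; inconclusive means first-round hits that could not be retested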;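 further: growth measured after seven days incubation then overnight dye step; 0% = bacteria only wells and 100% = bacteria with antibiotic; twin plates without the antibiotic show which effects depend on it; some results filed as inactive read as strong as hits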
Mtb growth: M. tuberculosis H37Rv growth inhibitors, H37Rv strain (AID 1626); M. tuberculosis H37Rv growth inhibition; higher % means a stronger effect; one-dose inhibition, % at 10 µM; IC50 in µM for titrated hits; actives 0.95% (n = 220,000);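 active means confirmed in a dose series; inconclusive means inhibition above 80% but not taken into the dose series; inactive means below 80% or under 30% at every dose of the series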;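 further: bacteria incubated seven days before Alamar blue readout; 0% = bacteria only wells and 100% = bacteria with antibiotic wells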
Arbovirus inh: arbovirus infection inhibition. arbovirus infection cell-based antiviral screen. inhibition, % at 10 µM. actives 0.37% (n = 200,000);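 active means inhibition from about 30%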;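 further: bluetongue infection of BSR cells; cell survival read as ATP light after 72 h; 0% = infected wells without compound and 100% = uninfected wells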
Arbovirus inh repeat: recorded beside Arbovirus inh, whose call it bears; inhibition, %; measured here: 10K subset replicate screen; many hits read low in the repeat;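 first of two repeat runs on a subset; 0% = infected and 100% = uninfected wells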
The depositor's hits bear a star; u = inconclusive; x = no result given. This is a subset; the hit share may differ from the screen's.

SMILES	YopH PTP inh	RecA intein inh	Mtb bLac sens	Mtb growth	Arbovirus inh	others
CCC(C)NC(=O)CN1C(=O)COc2ccc(S(=O)(=O)N3CCOCC3)cc21 (stereo not drawn)	x	4.3	0	x	x
CCCOC(=O)CC1C(=O)NCCN1C(=O)OC(C)(C)C (stereo not drawn)	x	-0.1	-7	7%	-4
COc1ccc(CCOC(=O)CNC(=O)c2ccc(Cl)cc2Cl)cc1	x	1.8	-2	x	x
NS(=O)(=O)c1ccc(NC(=O)CSC2=NC(=O)C(c3ccccc3)C(=O)N2)cc1 (stereo not drawn)	-50	-0.1	-3	-7%	8
Cc1nnc2n1N=C(c1ccc3c(c1)NC(=O)CO3)CS2	x	0.7	-9	-2%	x
COc1cc(OC)c(C(=O)NNC(=S)NC2CCCCC2)cc1OC	2	-0.5	u	0%	-8
CCOc1cc(C(=O)Nc2ccc(C)cc2C)ccc1OCC(=O)N1CCCCC1	-14	1.0	-9	-2%	6
Cc1cccc(N2C(=O)CC(Sc3nnc(C)s3)C2=O)c1 (stereo not drawn)	-26	5.8	-5	-9%	8
COc1cc(C(=O)NCc2cccnc2)ccc1OCC(=O)Nc1cccc(C(F)(F)F)c1	x	0.1	-3	x	x
CCCNC(=S)NC1CCCC1	-20	0.0	-3	-2%	4
CC(NS(=O)(=O)c1ccc(Br)cc1)c1ccccc1 (stereo not drawn)	x	3.8	0	x	x
O=C(COc1ccc2c(c1)CCC2)N1CCc2ccccc21	-41	3.4	1	-19%	-9
CC1(C)Cc2c(sc(NC(=O)C(=O)N3CCCCC3)c2C(=O)O)CO1	x	-8.5	u	x	x
COc1cccc(C(=O)O/N=C(\N)Cc2ccc(Cl)cc2)c1	-22	5.4	u	-2%	-4
COCCNC(=O)CNC(=O)c1nn(-c2ccc(OC)c(Cl)c2)c(=O)c2ccccc12	-43	-4.0	-14	-2%	10
O=C(C1CCCN(S(=O)(=O)c2cccs2)C1)N1CCC(N2CCCCC2)CC1 (stereo not drawn)	-34	x	4	-9%	3
CC(=O)N(c1ccccc1)C1CCCC1	-25	0.1	-1	2%	2
CC(=O)N1c2ccc(S(=O)(=O)NCC3CCC(C(=O)NC4CCCCC4C)CC3)cc2CC1C (stereo not drawn)	x	-1.1	6	x	x
C/C(=N\Nc1ccc(S(N)(=O)=O)cc1[N+](=O)[O-])c1ccccc1O	x	-0.9	2	-5%	x
COc1ccc(CC(=O)N2CCN(c3ccc(F)cc3)CC2)cc1	x	-0.9	-6	x	x
O=C(CS(=O)(=O)c1ccc(F)cc1)N1CCOCC1	x	1.3	5	x	x
COc1ccc(Nc2nnc(-c3ccc(O)cc3)c3ccccc23)cc1	x	3.4	61	7%	-28
COc1cc(NC(=O)CSc2nnc3ccc(-c4cccnc4)nn23)cc(OC)c1	x	-21	-4	x	x
CC1CC(C)CN(C(=O)CCCn2c(=O)c3cccn3c3cccnc32)C1 (stereo not drawn)	x	-3.7	0	x	x
Cc1cc(C(=O)OCC(=O)Nc2ccc(F)cc2)c(C)o1	7	-0.1	6	10%	1
CC(C)(C)N1C(=O)c2ccc(C(=O)O)cc2C1=O	-5	-0.5	-3	7%	-3
O=C1c2ccccc2CC1(Cc1ccccc1)Cc1ccccc1	-8	13	-4	-5%	2
COc1ccc(NCc2ccc(OC)c(Cn3ccnc3)c2)c(OC)c1	x	2.2	3	x	x
NP(=O)(OCCCc1ccccc1)c1ccccc1 (stereo not drawn)	x	1.5	1	x	x
COc1ccc(CCNC(=O)CCNC(=O)c2ccccc2Cl)cc1	x	0.3	2	x	x
COc1ccc(OC)c(C2C(C(C)=O)=C(O)C(=O)N2CCC(=O)O)c1 (stereo not drawn)	-39	0.7	-3	-9%	7
C[C@@H]1O[C@@H](Oc2c(-c3cc(O)c(O)c(O)c3)oc3cc(O)cc(O)c3c2=O)[C@H](O)[C@H](O)[C@H]1O	21	14	1	-5%	8
O=C(c1cc(C2CC2)on1)N1CCN(c2ccc(F)cc2)CC1	-7	-2.6	2	2%	3	Arbovirus inh repeat=1
Clc1ccc(C2=NOC(c3nnc(-c4ccccc4)o3)C2)cc1 (stereo not drawn)	x	0.5	-2	-6%	x
COc1ccccc1NS(=O)(=O)c1cccc(C(=O)NCc2ccncc2)c1	x	-2.3	-6	x	x
CN(C(=O)COC(=O)c1cccnc1Nc1ccccc1F)C1CCS(=O)(=O)C1 (stereo not drawn)	-27	15	3	0%	0
Cc1ccc2cc(-c3noc(C4CCCCC4)n3)c(=O)[nH]c2c1	x	0.1	7	x	4	Arbovirus inh repeat=6
O=C(CCSc1ccccc1)NCC1CCCO1 (stereo not drawn)	25	-3.1	-4	-8%	0
COc1ccc2nc(C)cc(SCC(=O)Nc3c(C)cc(C)cc3C)c2c1	-47	1.3	-15	-1%	-4
CCOc1ccc(Br)cc1S(=O)(=O)Nc1cccc(S(=O)(=O)N(CC)CC)c1	-29	0.1	3	-3%	3
COc1ccc(C2=Nn3c(nnc3-c3ccncc3)SC2)cc1OC	-24	-0.2	u	-2%	49*
CC1CCCCN1CCCNc1ccc(C(CC(N)=O)NC(=O)c2ccccc2)cc1[N+](=O)[O-] (stereo not drawn)	x	1.2	0	x	x
COc1ccc(OC)c(N(CC(=O)NCc2ccccn2)S(C)(=O)=O)c1	-26	-2.0	-2	-5%	4	Arbovirus inh repeat=-1
COc1ccc(OC)c(N/C(C)=C/C(=O)c2ccc(Br)cc2)c1	x	3.7	46	71%	1
COC(=O)c1ccc(N2CCOCC2)c(NC(=O)c2ccc(Br)o2)c1	x	2.2	u	x	x
CC(C)OC(=O)C1C2c3ccccc3C(c3ccccc32)C1C(=O)O (stereo not drawn)	x	-1.9	-11	-1%	4
COc1cc(C)c2occ(/C(C)=N\O)c2c1	-53	-1.0	-2	1%	6
COc1ccc2oc(C(=O)OCC(=O)N3CC(C)CC(C)C3)c(C)c2c1 (stereo not drawn)	x	0.4	4	x	x
COc1cc(NC(=O)CCN2CCN(C/C=C/c3ccccc3)CC2)cc(OC)c1	x	3.0	-10	x	x
CCCc1ccc(-c2cc(C(=O)Nc3ccc([N+](=O)[O-])cn3)c3ccccc3n2)cc1	-2	1.4	0	1%	11
O=C(N/N=C/c1ccccc1Cl)c1nc2ccc([N+](=O)[O-])cc2c(=O)[nH]1	x	2.6	-1	-6%	7
O=C(CCN1CCN(S(=O)(=O)c2cccc([N+](=O)[O-])c2)CC1)Nc1ccccc1F	x	2.7	1	x	x
COCCn1nnnc1C(c1ccc(OC)c(OC)c1)N1CCc2ccccc21 (stereo not drawn)	-1	1.0	-6	-3%	4
CN(Cc1ccccc1)C(=O)COc1ccc(-c2nnco2)cc1	-26	4.5	-1	2%	-4
O=S(=O)(c1cccc(-n2cnnn2)c1)N1CCOCC1	-41	2.3	-1	-7%	-3	Arbovirus inh repeat=0
O=C(Nc1ccccc1C(=O)Nc1ccccn1)c1cccc([N+](=O)[O-])c1	x	6.3	3	x	x
Cc1ccc(S(=O)(=O)c2c(N)n(-c3ccccc3)c3nc4ccccc4nc23)cc1	-13	-5.8	2	1%	-19
Cc1cccc(CNC(=O)c2ccccc2N)c1	-15	-5.5	1	8%	3
COc1ccc(NC(=O)CCN2CCN(c3ccc(F)cc3)CC2)cc1	x	-0.6	22	x	x
CCCC(NC(=O)CCc1c(C)c2cc3c4c(oc3c(C)c2oc1=O)CCCC4)C(=O)O (stereo not drawn)	x	-8.0	2	x	x

Filtered by structure, the compounds so far with an aryl thioether with sulfur outside any ring (4)
SMILES	YopH PTP inh	RecA intein inh	Mtb bLac sens	Mtb growth	Arbovirus inh	others
Cc1cccc(N2C(=O)CC(Sc3nnc(C)s3)C2=O)c1 (stereo not drawn)	-26	5.8	-5	-9%	8
COc1cc(NC(=O)CSc2nnc3ccc(-c4cccnc4)nn23)cc(OC)c1	x	-21	-4	x	x
O=C(CCSc1ccccc1)NCC1CCCO1 (stereo not drawn)	25	-3.1	-4	-8%	0
COc1ccc2nc(C)cc(SCC(=O)Nc3c(C)cc(C)cc3C)c2c1	-47	1.3	-15	-1%	-4

Returning to the listing, starting 4 compounds before the break.
SMILES	YopH PTP inh	RecA intein inh	Mtb bLac sens	Mtb growth	Arbovirus inh	others
Cc1ccc(S(=O)(=O)c2c(N)n(-c3ccccc3)c3nc4ccccc4nc23)cc1	-13	-5.8	2	1%	-19
Cc1cccc(CNC(=O)c2ccccc2N)c1	-15	-5.5	1	8%	3
COc1ccc(NC(=O)CCN2CCN(c3ccc(F)cc3)CC2)cc1	x	-0.6	22	x	x
CCCC(NC(=O)CCc1c(C)c2cc3c4c(oc3c(C)c2oc1=O)CCCC4)C(=O)O (stereo not drawn)	x	-8.0	2	x	x
Cn1c(SCC(=O)N2CCN(c3ccccc3)CC2)nnc1-c1ccncc1	7	5.3	6	-5%	2
CCCCc1cn(C[C@H]2CC[C@@H]([C@@H]3CC[C@H](Cn4cc(CCCC)nn4)O3)O2)nn1	x	-0.1	-2	x	x
NCCc1ccc(S(N)(=O)=O)cc1	x	-3.7	-3	1%	22
CCN(CC)c1ccc(S(=O)(=O)N2CCCCC2)cc1NC(=O)C1CCC1	x	9.6	-14	x	x
O=C1CC(c2ccc(F)cc2)Sc2nc(-c3ccccc3)c(-c3ccccc3)n21 (stereo not drawn)	-22	0.6	1	-6%	3
CC(C)NC(=O)C12CC3CC(C1)CC(n1cnc(Cl)n1)(C3)C2	-11	-0.7	-9	-11%	-1
CC1CCCN(C2(O)C(=O)Nc3ccc(Br)cc32)C1 (stereo not drawn)	x	6.9	-1	x	x
Cc1ccc(SCC(=O)OCC(=O)NC2CCCCCC2)cc1	x	-1.8	12	x	x
Cc1cccc(C)c1NC(=O)c1c(-c2ccccc2)noc1C	-46	0.3	-8	6%	-3
Cc1ccccc1-c1nc2sc3c(c2c(=O)o1)CCC3	-27	-0.2	99	42%	9
COc1ccccc1N1CCN(S(=O)(=O)c2c(C)sc3ncn(CC(=O)NCCN(C)C)c(=O)c23)CC1	x	4.1	0	x	x
Cc1ccc(-c2nc(CCN3C(=O)c4ccccc4C3=O)cs2)cc1	-25	9.2	8	-4%	5
O=C(COC(=O)Cc1cccc(C(F)(F)F)c1)NCC1CCCO1 (stereo not drawn)	-2	2.1	2	-2%	2
CCSC(=O)NC1CCCCC1	x	0.7	-3	-3%	x
CCOc1ccc(NC(=O)Cn2nc(-c3ccccc3Cl)n(CC)c2=S)cc1	-40	-2.3	-11	-3%	-7

Gathered by group, those above with a nitro group on carbon (six)
SMILES	YopH PTP inh	RecA intein inh	Mtb bLac sens	Mtb growth	Arbovirus inh	others
C/C(=N\Nc1ccc(S(N)(=O)=O)cc1[N+](=O)[O-])c1ccccc1O	x	-0.9	2	-5%	x
CC1CCCCN1CCCNc1ccc(C(CC(N)=O)NC(=O)c2ccccc2)cc1[N+](=O)[O-] (stereo not drawn)	x	1.2	0	x	x
CCCc1ccc(-c2cc(C(=O)Nc3ccc([N+](=O)[O-])cn3)c3ccccc3n2)cc1	-2	1.4	0	1%	11
O=C(N/N=C/c1ccccc1Cl)c1nc2ccc([N+](=O)[O-])cc2c(=O)[nH]1	x	2.6	-1	-6%	7
O=C(CCN1CCN(S(=O)(=O)c2cccc([N+](=O)[O-])c2)CC1)Nc1ccccc1F	x	2.7	1	x	x
O=C(Nc1ccccc1C(=O)Nc1ccccn1)c1cccc([N+](=O)[O-])c1	x	6.3	3	x	x

Screens: PubChem, several laboratories
